KSHV LANA nucl = LANA-nucleosome interaction inhibition; FITC-LANA1-23 / chicken nucleosome fluorescence polarization; stronger effect = lower value; AID 720717; z-score (concentration not given with the values); 51,000 tested, 0.3% active;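 active = both repeat wells score below -2 in polarization z-score versus plate sample wells, excluding overly bright wells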;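 also: 100 nL library stock added to about 30 µL; numbers are from one replicate; some results filed as inactive read as strong as hits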
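Material: Purified chicken nucleosomes with FITC-labelled LANA N-terminal peptide (1-23) | Reagent: 50 nM FITC-LANA1-23 probe | Medium: TEN-BT buffer, pH 7.5 | Times: 10–45 min incubation at room temperature | Detection: Fluorescence polarization | Replication: Duplicates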
BasE inh = BasE siderophore biosynthesis inhibition | purified BasE, fluorescence polarization binding displacement | inhibition, % (test concentration not listed) | 84,000 tested, 0.1% active | AID 485350;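 active = both replicates above 25% with normal brightness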;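 also: 0% = negative plate control signal and 100% = positive plate control signal; stock transfer was 100 nL into about 30 µL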
* hit, by the source's call; . = no result given; & = joins results of further samples. An excerpt; count on the stated rates, not on these rows.

| SMILES | KSHV LANA nucl | BasE inh |
| --- | --- | --- |
| O=C(O)c1cnn2c(C(F)(F)F)cc(-c3ccc(F)cc3)nc12 | -0.32 | -0.4 |
| O=C(COc1ccc(S(=O)(=O)N2CCOCC2)cc1)NCCC1=CCCCC1 | -1.6 | -1.0 |
| CN(Cc1cccs1)C(=O)Cn1cnc2ccccc2c1=O | . | 1.7 |
| COC(=O)Cc1cc(=O)[nH]c(/N=C(\N)Nc2ccccc2)n1 | . | 1.2 |
| Oc1c(C(Nc2ccccn2)c2cccnc2)ccc2cccnc12 (configuration not stated) | . | 2.8 |
| Cc1cc2c(n1-c1ccc(C(=O)NCCN(C)C)cc1)CCCC2 | 0.07 | -0.3 |
| Cc1[nH]cc(Br)c(=O)c1OCC(=O)O | -0.4 | 0.5 |
| O=C(Nc1sc2c(c1C(=O)N1CCCCC1)CCCC2)c1ccco1 | -0.97 | -0.1 |
| O=C(O)CN=C1NC2(CCCC2)Cc2ccccc21 | 2.3 | -3.1 |
| C=CCNC(=O)C1CCN(S(=O)(=O)c2cccc(C(F)(F)F)c2)CC1 | 1.2 | 2.7 |
| CN1C(=O)C2ON(c3ccccc3)C(c3ccccc3)C2C1=O (configuration not stated) | -0.16 | 0.9 |
| CC(C)Sc1n[nH]c(=S)n1C | . | 1.7 |
| CN(C)c1ccc(-c2nc3ccccc3s2)cc1 | 1.2 | -1.8 |
| CC(C)Cn1c(C23CC4CC(CC(C4)C2)C3)n[nH]c1=S | -0.032 | 3.8 |
| CCCn1c(=S)[nH]c2cc(C(=O)N3CCN(C)CC3)ccc2c1=O | 0.15 | -0.4 |
| Nc1ccc(N2CCOCC2)c2nonc12 | 1.1 | 3.1 |
| CCSc1nnc(NC(=O)c2ccc3c(c2)NC(=O)CS3)s1 | . | -3.5 |
| O=C(NCCc1c[nH]c2ccc(Cl)cc12)C1CCCO1 (configuration not stated) | -0.97 | 2.5 |
| CCn1c(CCc2nnc(SCC(=O)c3ccccc3)n2CC)nnc1SCC(=O)c1ccccc1 | -1.3 | 1.4 |
| OCC(CO)(CO)NC(=S)Nc1cc(Cl)cc(Cl)c1 | . | 0.5 |

One compound at a time (already shown):
OCC(CO)(CO)NC(=S)Nc1cc(Cl)cc(Cl)c1 is listed as KSHV LANA nucl: .; BasE inh: 0.5
CN(Cc1cccs1)C(=O)Cn1cnc2ccccc2c1=O is listed as KSHV LANA nucl: .; BasE inh: 1.7
CC(C)Cn1c(C23CC4CC(CC(C4)C2)C3)n[nH]c1=S is listed as KSHV LANA nucl: -0.032; BasE inh: 3.8

Carrying on:
| SMILES | KSHV LANA nucl | BasE inh |
| --- | --- | --- |
| COc1ccc(C(O)c2nc3ccccc3s2)cc1 (configuration not stated) | 0.88 | -1.8 |
| Cc1cc(CNC(=O)c2cc(C)n(C)n2)c(C(F)(F)F)o1 | . | 1.4 |
| Nc1nc(CSC(=S)N2CCCCC2)nc(Nc2ccccc2)n1 | . | 3.1 |
| CC1OC23CCCCC2C(C#N)(C#N)C1(C#N)C(=N)O3 (configuration not stated) | 0.13 | -1.1 |
| O=C(NCCNC1CCCC1)c1cccs1 | 0.31 | -1.9 |
| CCN(C(=O)Cc1ccc(NC2=NC3CS(=O)(=O)CC3S2)cc1)c1ccccc1 (configuration not stated) | 0.27 | -3.8 |
| CCn1c(CNC(=O)c2ccco2)nnc1SCC(=O)c1ccccc1 | 0.65 | -1.7 |
| COc1ccccc1OC(=O)NC(=O)C(F)(F)F | . | 2.3 |
| Cc1ccc(N2C(=O)C(CC(=O)Nc3ccc(Cl)cc3)N(CCN3CCN(C)CC3)C2=S)cc1 (configuration not stated) | -0.12 | -2.0 |
| Nc1nc(SCC(=O)N2N=C(c3ccco3)CC2c2cccs2)n[nH]1 (configuration not stated) | . | 0.8 |
| O=C(Cc1ccc(S(=O)(=O)N2CCOCC2)s1)Nc1ccc(-c2cn3ccsc3n2)cc1 | . | -6.8 |
| COC(=O)/C=C1\SC(=Nc2ccccc2)NC1=O | . | 1.1 |
| COc1ccc(OCC(=O)N2c3ccccc3C(C)(c3ccccc3)CC2(C)C)cc1 (configuration not stated) | . | 3.0 |
| COC(=O)c1ccccc1NC(=O)Cn1c(C)ccc1C | 0.17 | 0.5 |
| Cc1nn(C)c2ncc(C(=O)c3cc(F)ccc3O)cc12 | . | 1.1 |
| CC1CC1C(=O)NC1CCCCC1C(C)(C)C (configuration not stated) | -1.7 | 1.0 |
| O=C(CSc1nnc(NC2CCCCC2)s1)OCc1nnc(-c2ccccc2)o1 | . | 0.2 |
| C=CCN(CC=C)S(=O)(=O)c1ccc(OC)cc1 | -1.1 | 0.0 |
| O=C(CN1CCC(O)(c2ccccc2)CC1)NC1CCCCC1 | -0.59 | 1.3 |
| CC[C@H](C)[C@H]1O[C@]2(CC[C@@H]1C)C[C@@H]1C[C@@H](C/C=C(\C)C(O[C@H]3C[C@H](OC)[C@@H](O[C@H]4C[C@H](OC)[C@@H](O)[C@H](C)O4)[C@H](C)O3)[C@@H](C)/C=C/C=C3\CO[C@@H]4[C@H](O)C(C)=C[C@@H](C(=O)O1)[C@]34O)O2 (some centres not stated) | -0.91 | -0.9 |
| CCn1c(SCc2c(F)cccc2Cl)nc2cc(S(N)(=O)=O)ccc21 | . | -3.1 |
| CCCN(CCC)S(=O)(=O)C1CCS(=O)(=O)C1 (configuration not stated) | -0.51 | -0.7 |
| N#CC1(N2CCOCC2)CCCCC1 | 0.14 | 0.1 |
| O=C1O[C@@H]2C[C@H]3C[C@@H]2[C@@H]1[C@H]3C(=O)N1CCN(c2ccccc2)CC1 | -0.57 | 0.9 |
| Cc1ccc(S(=O)(=O)N2CCCC2C(=O)OCC(=O)Nc2cc(C)on2)cc1 (configuration not stated) | . | 0.9 |
| CC(C)c1nc2ccccc2n1C(=O)c1ccccc1C(=O)O | . | 1.6 |
| Cc1cc(C(=O)CSc2nnc(SCC(=O)c3cc(C)n(CC4CCCO4)c3C)s2)c(C)n1CC1CCCO1 (configuration not stated) | . | 1.8 |
| C(=N\c1nc2ccccc2n1CCN1CCCCC1)/c1ccc2c(c1)OCO2 | -0.18 | -1.3 |
| CSCCC(=O)N1CCN(c2ncccn2)CC1 | . | 0.4 |
| O=C(NCc1cccs1)c1ccc(=O)[nH]c1 | . | 0.1 |
| CCCn1c(CCC(=O)O)ccc1-c1ccccc1 | 0.66 | 1.4 |
| CN(C)Cn1c(=S)oc2cc(S(=O)(=O)Nc3ccccc3Cl)ccc21 | . | 3.0 |
| O=C(NCCCc1ccccc1)c1cccs1 | 0.038 | -1.3 |
| Cc1cccc(C)c1NC(=O)C1C2C=CC(C2)C1C(=O)NCc1ccccn1 (configuration not stated) | -0.35 | -0.2 |
| O=C(CN1CCN(c2ccc(O)cc2)CC1)c1ccc[nH]1 | . | -1.3 |
| C=CCNC(=O)c1c(N)n(-c2cccc(S(N)(=O)=O)c2)c2nc3ccccc3nc12 | . | 7.5 |
| CCN(CC)c1ccc(NC(=O)CNCC2CCCCC2)c(C)c1 | -0.11 | -1.8 |
| CCc1oc2ccccc2c1C(=O)c1cc(Br)c(O)c(Br)c1 | 1&0.023&-0.18 | -1.7 |
| CC1CC(C)CN(C(=O)CNC(=O)Cn2cnc3ccccc3c2=O)C1 (configuration not stated) | -0.54 | 2.5 |
| CCOC(=O)Cc1csc2nc3sc4c(c3c(=O)n12)CCCC4 | . | -4.4 |
| C/C(N)=C(/C#N)C(=O)CSc1nc(C)cs1 | . | 0.7 |
| CCc1ccc(NC(=O)CN(c2ccc(C)cc2)S(=O)(=O)c2cccc3nonc23)cc1 | 0.28 | 3.0 |
| CCCCCC1CC(CC(=O)Nc2nncs2)C(=O)O1 (configuration not stated) | 2.1 | -2.3 |
| N#Cc1cc2c(nc1SCC(=O)Nc1ccc(F)cc1)CCCC2=O | 0.85 | -1.2 |
| Cc1noc(C)c1CSc1ncccc1C(=O)Nc1ccc2c(c1)OCCO2 | . | 3.2 |
| C#CCn1nnc(-c2cc(C(F)(F)F)cc(C(F)(F)F)c2)n1 | -0.044 | 0.6 |
| O=c1ccnc(SCc2cn3ccccc3n2)[nH]1 | . | 3.1 |
| C=CCSc1nc2c(c(=O)[nH]1)C(c1ccccc1)C1=C(CCCC1=O)N2 (configuration not stated) | -0.97 | 1.6 |
| NC(=O)N/N=C1/C=C(c2ccccc2)C(O)(c2ccccc2)C1 (configuration not stated) | . | -0.4 |
| CCCn1c(=O)n(C)c(=O)c2c(SCC(=O)NCC3CCCO3)nc(C(C)(C)C)nc21 (configuration not stated) | . | 3.0 |
| Cc1ccccc1NC(=O)CC(C(=O)O)N(C)C (configuration not stated) | . | 2.1 |
| CCOc1ccc(NC(=O)CC2C(=O)NCCN2C(=O)c2ccccc2)cc1 (configuration not stated) | 0.53 | 0.2 |
| CCOC(=O)N1CCC(NC(=O)Cn2ncc3c(=O)oc4ccccc4c32)CC1 | 0.57 | -0.9 |
| Cc1nnc(SCCCn2c(N3CC(C)OC(C)C3)nc3c2c(=O)[nH]c(=O)n3C)s1 (configuration not stated) | -0.15 | -0.4 |
| Clc1snnc1CN1CCOCC1 | . | 2.1 |
| CCc1ccc(NC(=O)c2noc3ncnc(N4CCCC4)c23)cc1 | 0.67 | 0.4 |
| NC(=O)COc1ccc2oc(-c3ccccc3)cc(=O)c2c1 | 0.61 | 0.6 |
| COc1ccc(S(=O)(=O)n2nc(-n3c(C)ccc3C)c3c(F)cccc32)cc1OC | . | -0.1 |
| CN1CCN(Cn2c(=S)oc3ccccc32)CC1 | . | 13 |
| COC(=O)C(F)(Sc1c[nH]c2ccccc12)C(F)(F)F (configuration not stated) | -0.081 | -1.4 |

At a glance, some entries already given.
| SMILES | KSHV LANA nucl | BasE inh |
| --- | --- | --- |
| COc1ccc(S(=O)(=O)n2nc(-n3c(C)ccc3C)c3c(F)cccc32)cc1OC | . | -0.1 |
| CN1CCN(Cn2c(=S)oc3ccccc32)CC1 | . | 13 |
| COC(=O)C(F)(Sc1c[nH]c2ccccc12)C(F)(F)F (configuration not stated) | -0.081 | -1.4 |

Next section:
| SMILES | KSHV LANA nucl | BasE inh |
| --- | --- | --- |
| CC(C)S(=O)(=O)c1csc(C(=O)O)c1 | -0.15 | -1.2 |
| CCc1ccccc1Nc1nc2ccccc2[nH]1 | 1 | -2.7 |
| O=C(c1ccc2c(c1)C(=O)N(CC1CCCO1)C2=O)c1ccc2c(c1)C(=O)N(CC1CCCO1)C2=O (configuration not stated) | . | 3.1 |
| CN(CC(=O)O)c1ncc(-c2nnnn2-c2ccccc2)c(-c2ccccc2Cl)n1 | . | 1.9 |
| CC[C@@H]1/C=C(\C)C[C@H](C)C[C@H](OC)[C@H]2O[C@@](O)(C(=O)C(=O)N3CCCC[C@H]3C(=O)O[C@H](/C(C)=C/[C@@H]3CC[C@@H](O)[C@H](OC)C3)[C@H](C)[C@@H](O)CC1=O)[C@H](C)C[C@@H]2OC | 1.1 | -1.2 |
| OC1CCCN(Cn2nc(-c3ccccc3)n(-c3ccc(F)cc3F)c2=S)C1 (configuration not stated) | . | -0.7 |
| CCOC(=O)Oc1ccc2oc(=O)cc(C)c2c1 | 0.084 | -1.6 |
| Nc1c(C(=O)c2ccc(Cl)s2)sc2c1c(=O)[nH]c(=O)n2Cc1cccs1 | . | 2.1 |
| CC1S/C(=C\c2nc3ccccc3s2)NC1=O (configuration not stated) | . | -0.7 |
| Cc1nc2[nH]n(-c3ccccc3)c(=O)c2c(C)c1CCC(=O)Nc1ccccc1 | -0.71 | 1.9 |
| COc1cccc(/C=N/c2nnc(C)s2)c1O | -0.47 | 0.9 |
| CC(C#N)Sc1nnc2ccccn12 (configuration not stated) | . | 0.5 |
| Cc1ccc(-n2ccnc2SCC(=O)NC(=O)C2COc3ccccc3O2)c(C)c1 (configuration not stated) | . | 1.6 |
| Cc1ccc2[nH]c(O)c(N=NC(=O)Cc3cn4ccsc4n3)c2c1 | . | 2.5 |
| COc1ccc(CCNC2CC(=O)N(C3CCCCC3)C2=O)cc1OC (configuration not stated) | -1 | 4.8 |
| CC(CC(=O)NC1CCCC1)CC1=NS(=O)(=O)c2ccccc2N1 (configuration not stated) | 0.85 | -1.0 |
| CC(C)Oc1ccc(CNC(=O)C2CCCN(S(=O)(=O)N(C)C3CCCCC3)C2)cc1 (configuration not stated) | 1.3 | 0.0 |
| CC(=O)SC1CC(=O)N(c2ccc(C(F)(F)F)cc2)C1=O (configuration not stated) | -0.49 | 1.8 |
| COc1ccccc1CNC(=O)CSC1=NCCS1 | . | -1.4 |
| CNC(=S)NCCCN1CCN(c2ccc(F)c(Cl)c2)CC1 | 0.55 | -2.0 |
| COCCn1c(SCc2ccncc2)nc2ccccc2c1=O | -0.52 | -0.8 |
| NS(=O)(=O)c1ccc(CCNC(=O)CSc2ccc3c(c2)OCCO3)cc1 | . | 0.5 |
| CC1(C)S[C@@H]2[C@H](NC(=O)[C@@H](N)c3ccc(O)cc3)C(=O)N2[C@H]1C(=O)O | 0.045&-0.62 | 1.4 |
| O=C1CCCN1CCCNc1nc(-c2ccccc2)no1 | -0.066 | -0.3 |
| CN(C)c1ccc(N/C=C(\C#N)c2nc3ccccc3[nH]2)cc1 | -0.18 | -4.3 |
| CC(C)CCC1(C)NC(=O)N(CC(=O)c2ccc[nH]2)C1=O (configuration not stated) | . | -3.4 |
| CS(=O)(=O)N(CCC(=O)O)Cc1ccccc1 | -0.018 | 0.8 |
| CC(C)(C)c1cc(C(=O)NCc2ccco2)ccn1 | -1 | 2.8 |
| Cc1ccccc1N(C(=O)CCc1c(C)noc1C)c1nc2ccccc2s1 | . | -0.9 |
| Cc1cc(C(F)(F)F)c2c(C)nn(CCc3nn[nH]n3)c2n1 | . | 0.3 |
| Cc1noc(C)c1CCC(=O)Nc1ccc(Br)cc1Cl | . | -2.3 |
| CC(=O)N1CCN(C(=O)c2nn(Cc3ccccc3)c(=O)c3ccccc23)CC1 | . | 0.7 |
| Nn1cnc2ccccc2c1=O | . | 1.1 |
| O=C(c1ccc(Cl)cc1)N1CCCC(c2nc(-c3ccc(Cl)cc3)no2)C1 (configuration not stated) | 0.32 | -2.1 |
